Bioassay records from PubChem BioAssay.
TSHR agonist: TSH receptor (human) agonism; HEK293-CNG-TSHR cells (CNG channel as cAMP sensor), membrane potential dye, cAMP; Potency, µM (doses to about 57.1 µM), for inactives: top-dose activation, most hits filed as activators; 73,000 tested, 0.48% active; AID 926; active = well fitted activation curve of enough size with the parental cells flat; inconclusive = any curve in the parental cells; inactive = parental cells flat and receptor cells flat or falling; note: potency is the fitted concentration of half-maximal effect; % of control where 0% means no effect; weak receptor curves with flat parental cells got no call and are not listed
Target sequence (P16473 whole entry, looked up): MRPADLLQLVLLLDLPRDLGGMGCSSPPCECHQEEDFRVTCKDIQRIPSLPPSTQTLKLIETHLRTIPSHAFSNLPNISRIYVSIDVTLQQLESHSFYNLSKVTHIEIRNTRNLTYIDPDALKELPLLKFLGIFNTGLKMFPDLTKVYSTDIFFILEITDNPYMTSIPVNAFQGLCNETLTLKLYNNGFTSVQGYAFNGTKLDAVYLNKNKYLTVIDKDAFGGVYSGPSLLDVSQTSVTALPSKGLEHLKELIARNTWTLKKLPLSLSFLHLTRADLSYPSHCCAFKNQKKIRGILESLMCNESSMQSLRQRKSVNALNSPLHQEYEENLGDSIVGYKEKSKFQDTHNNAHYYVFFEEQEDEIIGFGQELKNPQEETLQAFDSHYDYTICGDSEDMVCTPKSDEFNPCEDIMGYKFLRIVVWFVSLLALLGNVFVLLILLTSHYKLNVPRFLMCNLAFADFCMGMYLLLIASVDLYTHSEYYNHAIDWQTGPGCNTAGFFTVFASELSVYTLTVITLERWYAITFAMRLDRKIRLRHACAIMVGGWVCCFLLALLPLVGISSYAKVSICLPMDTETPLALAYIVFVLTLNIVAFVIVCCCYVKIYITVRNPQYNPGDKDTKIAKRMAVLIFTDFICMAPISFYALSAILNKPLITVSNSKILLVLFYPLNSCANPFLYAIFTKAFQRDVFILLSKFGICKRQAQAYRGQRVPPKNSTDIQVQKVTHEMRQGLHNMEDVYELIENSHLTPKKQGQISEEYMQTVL
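HEK 293 cells stably expressing TSHR and a modified CNG channel, with CNG-only parental cells as counterscreen, were preloaded 60 min at room temperature with membrane potential dye containing 100 uM RO 20-1724. Compound exposure was 30 min, and depolarization was read as fluorescence at 590 nm.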
Resorufin autofl: resorufin region autofluorescence. Compound fluorescence, resorufin region 547/598 nm, buffer; stronger effect = higher value. max dye-equivalent concentration, M. 59,000 tested, 0.04% active. AID 588; active = above 10 nM dye equivalent; inconclusive = 1 to 10 nM; inactive = 1 nM or less; a few of its hits are not listed in these tables; note: highest value over a series up to 38 µM
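Compounds in 100 mM Tris, pH 8.0, incubated 15 min at room temperature, then fluorescence read at 547 nm excitation/598 nm emission. Signal converted to dye-equivalent concentration via an on-plate six-point resorufin standard curve, per compound concentration.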
AID923: qHTS Assay for Allosteric/Competitive Inhibitors of Caspase-1: Spectroscopic Profiling in AFC Spectral Region. 75,000 tested, 1.1% active. Potency, µM (highest dose often 57.5 µM), for inactives: top-dose fluorescence increase, actives largely listed as activators. compound fluorescence, AFC spectral region (405/520 nm); almost no hit is shown here. AID 923, 2007; active = well fitted activation curve with a large enough effect; inconclusive = small, poorly fitted or top-dose-only effect;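 note: potency is the fitted concentration of half-maximal effect; 0% is about no effect; scaled to a free AFC standard on each plate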
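Titrations up to 57 uM read every 20 sec for 3 min (405/520 nm) with 50 nM caspase 1 and 5 uM Ac-WEHD-AFC, pH 7.5 HEPES buffer. Fluorescence-vs-time intercept gave baseline, scaled against on-plate AFC standard.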
A488 fluor: A488 region autofluorescence; compound autofluorescence, A488 spectral region, dye equivalency; stronger effect = higher value; max dye equivalency, M; 59,000 tested, 0.1% active; AID 591; active = above 10 nM dye equivalent; inconclusive = 1 to 10 nM; inactive = 1 nM or less; about half of its hits are not listed in these tables;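 note: highest value over a series up to 38 µM; compound alone in buffer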
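Spectroscopic profiling in the A488 region: compounds in pH 8.0 Tris (100 mM), 15 min RT, CCD imaging with 480 nm excitation and 540 nm emission; responses normalized against A488 dye standards.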
A647 autofl: A647 region autofluorescence | max dye-equivalent concentration, M | 59,000 tested, under 10 active | AID 592 | Compound fluorescence, A647 channel (570/671 nm), Tris buffer; active means above 1 µM dye equivalent; inconclusive means 0.1 to 1 µM; inactive means 0.1 µM or less;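 note: values scaled relative to a standard on each plate; highest value over a series up to 38 µM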
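Compounds pinned into 100 mM Tris pH 8.0, 15 min at room temperature, then read with 570 nm excitation/671 nm emission filters. Fluorescence normalized to an on-plate six-point Alexa 647 standard curve, giving dye-equivalent concentration per compound concentration.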
* hit, by the source's call; i = inactive; ? = inconclusive; . = no result given; [ ] = dose if it differs, or a comment. These rows are one share of the data, so the mix of outcomes need not match the whole.

Results follow in this order: TSHR agonist, AID923, A488 fluor, Resorufin autofl, A647 autofl
> CCN(CC)S(=O)(=O)c1cc(C(=O)OC)ccc1Cl
    ?, -0.3%, ., ., .
> CCCCCSc1nnc(C)c(=O)[nH]1
    1%, 0.2%, i, i, 6.1e-09
> CCCn1c(=O)c(-c2ccccc2)c(O)c2ccccc21
    11%, 0.2%, i, i, 1e-09
> Cc1noc(C)c1S(=O)(=O)N1CCC(C(=O)N2CCC(C)CC2)CC1
    17%, 2.1%, i, i, 1e-09
> Cc1ccc(CN2C(=O)C(C)(C)Oc3ccc(C(=O)N4CCCCC4)cc32)cc1
    ?, -1.0%, i, i, 2.1e-08
> CCC(C)NC(=O)CN(c1cc(C)ccc1OC)S(C)(=O)=O (centres undefined)
    -2%, -1.6%, i, i, 1.2e-08
> COC(=O)C1C(c2ccccc2)C(C(=O)N2CCOCC2)C1c1ccccc1 (centres undefined)
    ?, -2.1%, i, i, 4.7e-09
> OB(O)c1cc2ccccc2o1
    10%, -5.0%, ., ., .
> CC1(C)S[C@@H]2[C@H](C(=O)O)N=C(Cc3ccccc3)N2[C@H]1C(=O)O
    -2%[11.4 µM], -0.2%[11.5 µM], i, i, 1.3e-08
> O=C(CCn1c(=O)sc2ccccc21)NCc1ccco1
    0%, 0.0%, i, i, 3.7e-08
> CCOCC(=O)Nc1ccc(-c2cn3cccnc3n2)cc1
    -7%, 8.2%, i, i, 4e-08
> COc1ccc2[nH]cc(CCNc3ncncc3-c3ccc(C(=O)N(C)C)cc3)c2c1
    3%, 3.1%, i, i, 5.4e-09
> COc1ccc(N(CC(=O)NCc2cccs2)S(=O)(=O)c2cccnc2)cc1
    8%, -1.8%, ., ., .
> CCCCOC(=O)Cn1c(=O)c2c(nc3n2CCCCN3c2ccc(C)cc2)n(C)c1=O
    ?, 1.1%, i, i, 5e-09
> CC(=O)Nc1ccc(C(=O)OC2CCOC2=O)cc1 (centres undefined)
    ?, 0.5%, i, i, 4.7e-08
> COc1ccc(CN2C(=O)CN=C2Nc2cc(C)ccc2C)cc1
    ., -0.6%, i, i, 1.7e-08
> CS(=O)(=O)N(CCc1ccccc1)CC(N)=O
    -4%, -0.6%, i, i, 5.4e-09
> CCc1c(C)sc(NC(=O)OC)c1C(=O)N1CCCCC1
    ?, 1.4%, i, i, 1e-09
> CCOC(=O)c1c(CN2CCCCC2C)oc2ccc(OC)cc12 (centres undefined)
    ?, -1.0%, i, i, 2.3e-08
> Cc1ccnc(N2C(=O)OC(C)(C)C2(C)O)c1 (centres undefined)
    ?, 1.2%, i, i, 1e-09
> C=CCn1c(=O)c2c3c(sc2n2c(Nc4ccc(OC)cc4)nnc12)CCCC3
    4%, -1.5%, i, i, 1e-09
> Cc1c(OCC(=O)OC(C)C)ccc2c3c(c(=O)oc12)CCC3
    ?, -0.8%, i, i, 5.4e-09
> COc1ccc2cc(C(=O)CCC(=O)O)ccc2c1
    0%[11.4 µM], 2.4%[11.5 µM], i, i, 1e-09
> CCOC(=O)c1ccccc1NC(=O)c1ccc(N(C)S(C)(=O)=O)cc1
    ., -0.1%, i, i, 1e-09
> COc1ccc(OC)c(NC(=O)c2ccc(S(=O)(=O)N3CCN(C)CC3)cc2)c1
    3%, 0.0%, i, i, 3.3e-09
> CC1Oc2ccccc2N(CC(=O)Nc2ccc3c(c2)OCCO3)C1=O (centres undefined)
    0%, -1.3%, i, i, 6.9e-09
> CCN(CC)C(=O)N1CCN(C(=O)c2ccc(C)cn2)CC1
    -3%, -0.1%, i, i, 1e-09
> CCCc1ccc(OCc2nc(-c3ccc(NC(=O)c4ccco4)cc3)no2)cc1
    17%, 0.1%, i, i, 3.2e-08
> CCc1nnc(NC(=O)CSc2nnc(-c3ccc(O)cc3)n2-c2ccccc2)s1
    6%, 0.4%, i, i, 1e-09
> CCCCNc1nc2ccccc2nc1NS(=O)(=O)c1cccs1
    -6%, -3.9%, i, i, 1.6e-08
> Cc1cc(C(=O)O)ccc1[C@H](N)C(=O)O
    4%, -1.1%, ., ., .
> CCN1C(=O)c2n[nH]c(C(=O)OC)c2C1=O
    13%, -1.7%, i, i, 2.4e-08
> O=C1CCC(=O)N1CNc1ccc(Oc2ccccc2)cc1
    -7%, -0.7%, i, i, 4.5e-09
> CCOC(=O)Nc1ccc(Oc2ccccc2)cc1
    -11%, 4.2%, i, i, 4.6e-09
> COCCOC(=O)c1[nH]c2c(c1C)C(=O)CC(c1ccccc1)C2 (centres undefined)
    1%, -0.3%, i, i, 2.4e-08
> NC(=O)Cn1c(=O)n(CCCC(=O)NC2CCN(Cc3ccccc3)CC2)c(=O)c2ccccc21
    -3%[11.4 µM], -0.4%, i, i, 1e-09
> CC(=O)c1c(C)[nH]c(C(=O)OCc2nnc(-c3ccccc3)o2)c1C
    25%, 0.7%, i, i, 1.9e-08
> COC(=O)CSc1nnc(CNC(=O)c2ccco2)n1-c1ccc(F)cc1
    -8%, 1.4%, i, i, 1.5e-08
> O=C(CSc1nnnn1-c1ccc2c(c1)OCCO2)c1cccc2c1OCCO2
    24%, 0.4%, i, i, 3.1e-09
> CCN(CC)CCCNc1nc2ccccc2[nH]1
    ?, 4.0%, ., ., .
> CCOC(=O)c1ccc(NC(=O)c2nccnc2C(=O)O)cc1
    19%, -1.4%, ., ., .
> O=C(c1ccco1)N1CCN(C(=O)c2cc3c(s2)-c2ccccc2OC3)CC1
    15%, 16%, ., ., .
> Cc1ccc(O)c(C(=O)c2cc(C#N)c(=O)n(CC3CCCO3)c2)c1 (centres undefined)
    12%, 6.5%, i, i, 1e-09
> S=c1[nH]nc(-c2ccccc2)n1CC1CCCO1 (centres undefined)
    -11%, -0.8%, i, i, 4.1e-09
> CN(C)c1nc(SCCOC(=O)c2ccccc2)nc(N(C)C)n1
    ?, 1.8%, i, i, 1e-09

Four entries from above in another layout.
SMILES | TSHR agonist | AID923 | A488 fluor | Resorufin autofl | A647 autofl
O=C(c1ccco1)N1CCN(C(=O)c2cc3c(s2)-c2ccccc2OC3)CC1 | 15% | 16% | . | . | .
Cc1ccc(O)c(C(=O)c2cc(C#N)c(=O)n(CC3CCCO3)c2)c1 (centres undefined) | 12% | 6.5% | i | i | 1e-09
S=c1[nH]nc(-c2ccccc2)n1CC1CCCO1 (centres undefined) | -11% | -0.8% | i | i | 4.1e-09
CN(C)c1nc(SCCOC(=O)c2ccccc2)nc(N(C)C)n1 | ? | 1.8% | i | i | 1e-09

The results go on:
Results follow in this order: TSHR agonist, AID923, A488 fluor, Resorufin autofl, A647 autofl
> O=S(=O)(Nc1ccc2c(c1)nc1n2CCOC1)c1ccc(Cl)cc1
    -11%, -0.6%, i, i, 3.9e-08
> COc1ccc(NC(=O)C(C)NS(=O)(=O)c2ccccc2)cc1Cl (centres undefined)
    ., -0.4%, i, i, 1.3e-08
> COC(=O)C1=C(C)N(c2cccc3ccccc23)C(=O)C1
    22%, 0.8%, i, i, 2.1e-08
> Brc1ccccc1-c1nnc(CSc2nncn2-c2ccccc2)o1
    1%, -0.5%, i, i, 1.7e-09
> C#CCN(C#N)c1nc(NCC)nc(NC(C)C)n1
    7%, -0.1%, i, i, 1e-09
> CC1CCc2sc3ncnc(N4CCOCC4)c3c2C1 (centres undefined)
    21%, -0.7%, i, i, 1e-09
> O=C(O)CCN1CCc2ccccc21
    1%, 0.7%, i, i, 1.5e-09
> CC(C)c1nnc(NC(=O)Cn2nc(-c3ccc4c(c3)OCCO4)ccc2=O)s1
    0%, -3.5%, i, i, 1e-09
> CC1=C(C(=O)OC(C)C)C(c2ccc(N(C)C)cc2)C2=C(CC(C)(C)CC2=O)N1 (centres undefined)
    ?, 9.4%, i, i, 3.1e-08
> Brc1ccccc1OCCCN1CCOCC1
    12%, 2.3%, ., ., .
> CNCc1ccc(OCc2ccccc2)c(OC)c1
    12%, -1.1%, i, i, 1.8e-09
> CCC(=O)NC1(C(F)(F)F)C(=O)Nc2c1c(=O)n(C)c(=O)n2C (centres undefined)
    4%, 0.5%, i, i, 1e-09
> COCCn1cc(C(=O)c2ccccc2OCC(=O)Nc2cc(C)on2)cc(C#N)c1=O
    18%, 4.9%, i, i, 4.5e-09
> N#Cc1nc(COc2ccccc2)oc1N1CCCC1
    ., ., i, i, 3.9e-09
> Cc1cnc(CNc2ncnc3ccc(-c4cccc(NS(C)(=O)=O)c4)cc23)cn1
    4%, -0.5%, i, i, 1e-09
> Cc1noc(C)c1S(=O)(=O)N1CCC(C(=O)NC2CCCc3ccccc32)CC1 (centres undefined)
    4%, -1.9%, i, i, 1e-09
> CCCS(=O)(=O)N1CCN(C(=O)c2cccnc2)CC1
    1%, 0.8%, ., ., .
> N#Cc1c(-c2ccccc2)nc(SCc2nc(N)nc(N3CCCCC3)n2)[nH]c1=O
    16%, 0.7%, i, i, 1e-09
> O=c1nc(N2CCCC2)nc(Nc2ccccc2)[nH]1
    -3%, -2.5%, i, i, 2.4e-09
> COc1ccc(-n2nnc3c(SCC(=O)c4ccccc4)ncnc32)cc1
    30%, 0.2%, ., ., .
> OCC1OC(n2nc3ccccc3n2)C(O)C(O)C1O (centres undefined)
    8%, 0.0%, i, i, 2.4e-08
> Cc1cccc2c1nc(-c1ccccc1)n1cnnc21
    ?, -0.5%, i, i, 2.5e-08
> Cc1cc(-n2c(C)cc(C(=O)COc3ccc4ccc(=O)oc4c3)c2C)no1
    19%, 3.5%, i, i, 1.2e-08
> C/C(N)=C(/C#N)C(=O)CN1CCCCC1
    -14%, 0.8%, i, i, 1e-09
> O=C(CCCOc1ccccc1)N1CCN(C(=O)c2ccco2)CC1
    ., -0.3%, i, i, 1.8e-08
> c1cncc(CNc2cc(-c3ccc4c(c3)OCO4)ncn2)c1
    1%, -1.7%, i, i, 9.4e-09
> COc1ccc(S(=O)(=O)N2CCC(O)(c3ccc(Cl)cc3)CC2)cc1
    ?, 1.5%, i, i, 2.8e-09
> CC(=O)N1CC=CC1(CC(C)C)C(=O)NCC1CC1 (centres undefined)
    2%, 1.8%, ., ., .
> CCc1cc(C(=O)OC)c(NC(=O)CCCC(=O)O)s1
    1%, 0.1%, i, i, 3.8e-08
> O=C1Nc2ccccc2C12OCCO2
    -1%, -0.9%, i, i, 1e-09
> CCCCn1c(-c2ccc(Cl)cc2)nc2c(=O)n(C)c(=O)[nH]c21
    ., ., i, i, 3.6e-08
> Cn1cccc1Cc1nnc(SCC(=O)N2CCc3ccccc32)n1CCc1ccccc1
    11%, -0.3%, ., ., .
> CCn1c(SCC(=O)C(C)(C)C)nnc1-c1ccccn1
    20%, 0.1%, i, i, 1e-09
> Cn1c(=O)oc2cc(S(=O)(=O)N3CCCC(C(=O)N4CC=C(c5ccccc5)CC4)C3)ccc21 (centres undefined)
    -13%, 2.0%, ., ., .
> COc1ccc(-c2noc(-c3ccccc3C(=O)Nc3cccnc3)n2)cc1OC
    29%, -0.7%, i, i, 1e-09
> Cc1cc(C(=O)Nc2nnc(-c3ccccc3)s2)no1
    -1%, 0.7%, i, i, 1.8e-08
> CCCC(=O)Nc1cccc(-c2nc3ccccc3o2)c1
    -7%, -1.6%, i, i, 1e-08
> CCCSc1nc2c(c(=O)n(C)c(=O)n2C)n1Cc1ccc(C)cc1
    ?, -0.3%, i, i, 2.2e-08
> Cc1cccc(NC(=O)C2CC(O)CN2C(=O)OCc2ccccc2)c1 (centres undefined)
    -5%, -0.3%, i, i, 2.7e-09
